Source: PubChem (National Center for Advancing Translational Sciences (NCATS))
A488 autofl: qHTS Assay for Spectroscopic Profiling in A488 Spectral Region. AID 591, 2007. compound autofluorescence, A488 spectral region, dye equivalency; stronger effect = higher value. 59,000 compounds, 0.1% hits. max dye equivalency, M; active = above 10 nM dye equivalent; inconclusive = 1 to 10 nM; inactive = 1 nM or less; about half of its hits are not listed in these tables;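 further: highest value over a series up to 38 µM; compound alone in buffer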
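Intrinsic compound fluorescence is measured in 100 mM Tris buffer at pH 8.0 following 15 min incubation at room temperature. Intensities at 480 nm excitation/540 nm emission are calibrated to an on-plate A488 concentration series, giving dye-equivalent concentrations.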
TSHR ag: qHTS Assay for Agonists of the Thyroid Stimulating Hormone Receptor; AID 926, 2007; HEK293-CNG-TSHR cells (CNG channel as cAMP sensor), membrane potential dye, cAMP; 73,000 compounds, 0.48% hits; Potency, µM (highest dose often 57.1 µM), without a hit: at the top dose activation, hits mostly activators; active = well fitted activation curve of enough size with the parental cells flat; inconclusive = any curve in the parental cells; inactive = parental cells flat and receptor cells flat or falling; further: potency means the concentration at half of the fitted maximal effect; % of control where 0% means no effect; weak receptor curves with flat parental cells got no call and are not listed
Target sequence (P16473 whole entry, looked up): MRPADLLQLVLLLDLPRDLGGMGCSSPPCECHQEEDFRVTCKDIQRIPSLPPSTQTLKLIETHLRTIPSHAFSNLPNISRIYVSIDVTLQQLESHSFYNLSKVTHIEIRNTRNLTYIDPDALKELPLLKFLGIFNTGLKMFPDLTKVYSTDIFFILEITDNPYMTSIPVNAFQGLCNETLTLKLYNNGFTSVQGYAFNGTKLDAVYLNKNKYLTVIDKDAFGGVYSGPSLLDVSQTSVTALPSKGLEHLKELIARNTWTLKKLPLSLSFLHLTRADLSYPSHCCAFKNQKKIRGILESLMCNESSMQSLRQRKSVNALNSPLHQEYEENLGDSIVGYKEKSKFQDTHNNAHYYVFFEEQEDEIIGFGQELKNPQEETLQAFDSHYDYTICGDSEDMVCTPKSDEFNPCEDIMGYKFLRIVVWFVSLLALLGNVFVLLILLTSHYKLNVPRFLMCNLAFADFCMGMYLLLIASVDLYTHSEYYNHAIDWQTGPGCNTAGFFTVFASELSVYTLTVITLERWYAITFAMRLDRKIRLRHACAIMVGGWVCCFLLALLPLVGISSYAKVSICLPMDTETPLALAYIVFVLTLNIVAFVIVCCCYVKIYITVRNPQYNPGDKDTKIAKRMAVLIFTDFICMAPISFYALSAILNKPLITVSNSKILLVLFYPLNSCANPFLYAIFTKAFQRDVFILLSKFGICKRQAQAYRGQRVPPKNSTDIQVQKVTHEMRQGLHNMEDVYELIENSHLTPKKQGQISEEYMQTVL
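HEK 293 cells stably expressing TSHR and a cAMP-gated CNG channel; parental CNG-only cells as counterscreen. Cells preloaded 60 min with membrane potential dye plus 100 uM RO 20-1724, then compound 30 min; fluorescence read at 590 nm.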
Resorufin autofl: qHTS Assay for Spectroscopic Profiling in Resorufin Spectral Region | Compound fluorescence, resorufin region 547/598 nm, buffer; stronger effect = higher value | max dye-equivalent concentration, M | 59,000 compounds, 0.04% hits; active = above 10 nM dye equivalent; inconclusive = 1 to 10 nM; inactive = 1 nM or less; a few of its hits are not listed in these tables; further: highest value over a series up to 38 µM
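Dye-equivalent concentration values derive from comparing each well's 547/598 nm fluorescence against resorufin standards included on every plate. Incubation was 15 min at room temperature in 100 mM Tris, pH 8.0.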
AID923: qHTS Assay for Allosteric/Competitive Inhibitors of Caspase-1: Spectroscopic Profiling in AFC Spectral Region; compound fluorescence, AFC spectral region (405/520 nm); almost no hit is shown here; Potency, µM (doses to about 57.5 µM), inactives show at the top dose fluorescence increase, most hits filed as activators; 75,000 compounds, 1.1% hits; AID 923, 2007; active means well fitted activation curve with a large enough effect; inconclusive means small, poorly fitted or top-dose-only effect;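 further: potency means the concentration at half of the fitted maximal effect; 0% is about no effect; scaled to a free AFC standard on each plate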
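Compound autofluorescence profiled at 405 nm ex/520 nm em during kinetic caspase 1 run (50 nM enzyme, 5 uM Ac-WEHD-AFC, HEPES pH 7.5, 10 mM DTT). Titration up to 57 uM; baseline from regression intercept, normalized to AFC standard curve.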
A647 fluor: qHTS Assay for Spectroscopic Profiling in A647 Spectral Region; 59,000 tested, under 10 active; max dye-equivalent concentration, M; Compound fluorescence, A647 channel (570/671 nm), Tris buffer; AID 592, 2007; active means above 1 µM dye equivalent; inconclusive means 0.1 to 1 µM; inactive means 0.1 µM or less;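 further: values scaled relative to a standard on each plate; highest value over a series up to 38 µM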
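Spectral profiling of library compounds in pH 8.0 Tris: 15 min room-temperature incubation, single ex/em pair (570/671 nm), response normalized to Alexa 647 equivalents.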
Starred values were filed as active, the others as inactive; i = inactive; u = inconclusive; x = not tested or not shown; [ ] = another dose, or the depositor's remark.

SMILES	A488 autofl	TSHR ag	Resorufin autofl	AID923	A647 fluor
CC(C)CC1OCCC=CC1C (stereo not drawn)	x	-8%[11.4 µM]	x	-2.7%[11.5 µM]	x
CCC(=O)N1CCN(C(=O)c2ccccc2)CC1	i	2%	i	-3.9%	4.4e-08
CCOC(=O)CN1C(=O)C(C)(C)Oc2ccc(C(=O)Nc3ccccc3OC)cc21	i	-6%[11.4 µM]	i	-0.3%	1e-09
Cn1c(=O)c2ncn(CC(=O)Nc3cc(C(F)(F)F)ccc3N3CCOCC3)c2n(C)c1=O	i	x	i	2.1%	1e-09
COc1cccc(C2=CC(c3ccc(N(C)C)cc3)n3nnnc3N2)c1 (stereo not drawn)	i	x	i	x	5.2e-09
CC(C)CCNC(=O)Cn1c(NCCC(C)C)nc2c1c(=O)n(C)c(=O)n2C	x	-8%	x	0.0%	x
COc1ccc(-n2c(C)nc3c(cnn3-c3ccc(Cl)cc3)c2=O)cc1	i	u	i	0.5%	1e-09
O=C(Nc1ccccc1C(F)(F)F)c1cc(-c2ccc(O)cc2)on1	i	-1%	i	1.7%	1.2e-08
COc1ccccc1Nc1nc(N)nc(CN2CCN(Cc3ccccc3)CC2)n1	i	21%	i	0.3%	5.8e-09
Cc1ccc(O)c(CNc2ccccn2)c1	i	-4%	i	0.8%	1.8e-09
CN(Cc1ccccc1)C(=O)CCCn1c(=O)[nH]c2cc(Cl)ccc2c1=O	i	8%[11.4 µM]	i	-0.6%	1e-09
Cc1c(NC(=O)C2Cc3ccccc3CN2C(=O)c2ccco2)c(=O)n(-c2ccccc2)n1C (stereo not drawn)	i	10%	i	1.8%	2.4e-08
CS(=O)(=O)N1CCC2(CCN(Cc3ccc(C#N)cc3)CC2)CC1	i	6%	i	2.7%	1e-09
COc1cc(-c2nc(-c3ccncc3)no2)cc(OC)c1OC	x	2%	x	1.0%	x
O=C(CSc1nnnn1-c1cccc2c1CCCC2)N1CCOCC1	i	16%	i	-2.1%	1.6e-08
CCOC(=O)CCCCC(=O)NC(CO)C(=O)NC (stereo not drawn)	i	x	i	x	7.8e-08
C=CCN1C(=Nc2ccccc2)SC/C1=C\C(=O)OC	i	8%	i	-1.5%	3e-09
O=C(CSc1nc2ccccc2c(=O)[nH]1)c1cccs1	x	16%	x	3.2%	x
COc1ccc(-c2cc(C(F)(F)F)nc(SCCC(=O)N3CCN4CCCC4C3)n2)cc1 (stereo not drawn)	i	u	i	-1.3%	1e-09
O=c1[nH]c2cc(Cl)ccc2c(O)c1-c1ccc(Oc2ccccc2)cc1	i	x	i	-0.7%	8.2e-09
COc1ccccc1C1C(C(N)=O)=C(C)Nc2ncnn21 (stereo not drawn)	i	-10%	i	1.2%	1e-09
Cc1cccc2cc(C(c3nnnn3Cc3ccc4c(c3)OCO4)N3CCCC3)c(=O)[nH]c12 (stereo not drawn)	i	u	i	2.6%	2.3e-09
Cc1sccc1C1C(C#N)=C(N)SC(N)=C1C#N	i	x	i	x	2.7e-08
O=C(CS(=O)(=O)c1cn(Cc2cccc(F)c2)c2ccccc12)N1CCOCC1	i	1%	i	1.9%	3.4e-09
Cc1cccc(-n2nnc(C(=O)NCc3ccco3)c2N)c1	i	-1%	i	0.6%	2.7e-08
Remaining list, next part
SMILES	A488 autofl	TSHR ag	Resorufin autofl	AID923	A647 fluor
COc1ccc2cc(C(c3nnnn3CCc3ccccc3)N3CCC(O)CC3)c(=O)[nH]c2c1 (stereo not drawn)	i	-9%	1.3e-08M*	1.3%	1.2e-09
CC(=O)c1cccc(NC(=O)CN(C2CCCCC2)S(C)(=O)=O)c1	i	x	i	-0.4%	1e-09
Cc1cc(C)nc(SCc2nnc(SCC(=O)Nc3ccc(Cl)c(C(F)(F)F)c3)o2)n1	i	-3%	i	-2.8%	1e-09
CCCCC(=O)Nc1ccc2c(c1)nc1n2CCOC1	i	u	i	1.8%	3.1e-08
NS(=O)(=O)c1ccc(NS(=O)(=O)/C=C/c2ccccc2)cc1	x	8%	x	0.2%	x
O=C(O)C1CCCN1c1ncccn1 (stereo not drawn)	i	-8%	i	-3.3%	3.7e-09
CCn1c(CNc2ccccc2Cl)nnc1SCCN1CCCCC1	i	-2%	i	-0.6%	4.2e-08
Cc1ccc(S(=O)(=O)N2CCN(c3ncnc4c3cnn4-c3ccccc3)CC2)cc1	i	u	i	-0.7%	2.3e-08
COc1ccc(CCNC(=O)c2cnn3ccccc23)c(OC)c1OC	x	4%	x	-1.8%	x
O=C(O)Cn1cc(C(=O)c2ccco2)c2ccccc21	i	2%	i	2.1%	4.5e-08
CC(=O)NCCNc1nc(-c2ccccc2C)nc2ccccc12	i	8%	i	0.9%	2.9e-08
Cc1cc(C(=O)CN2C(=O)c3ccccc3C2=O)c(C)n1C1CC1	i	-1%	i	-1.0%	3e-08
CCOC(=O)c1ncn2c1C(=O)OC2(C)C	i	1%	i	-4.5%	1e-09
COCCCNC(c1ccccc1)c1ccncc1 (stereo not drawn)	i	5%	i	0.3%	1.3e-08
O=C(CSc1nnc(CNc2ccc(Cl)cc2)n1Cc1ccccc1)NCc1ccco1	i	12%	i	-1.8%	2.2e-08
CCCCOc1ccc(Cl)cc1CSc1nncn1N	i	x	i	-0.7%	3.7e-08
CCCCCN=C(C)c1c(O)c2ccccc2oc1=O	x	u	x	-2.0%	x
CSc1oc(-c2ccco2)nc1S(=O)(=O)c1ccc(F)cc1	x	2%[11.4 µM]	x	0.4%	x
CSC1=C(C#N)C(c2cccs2)CC(=O)N1C (stereo not drawn)	i	1%	i	-2.2%	1e-09
Cc1nc(N2CCOCC2)c2nc(-c3ccccc3)n(CCN3CCCCC3)c2n1	x	10%	x	-2.5%	x
COCCCn1c(CCC(=O)O)ccc1-c1ccc(F)cc1	i	3%	i	-1.1%	2.6e-08
Cn1c(C(=O)N2CCN(c3ccc(F)cc3)CC2)cc2c(=O)n(C)c3ccccc3c21	x	-9%	x	-0.7%	x
CC(=O)N1CCN(c2ccccc2NC(=O)c2cc(Br)ccc2Cl)CC1	i	u	i	1.4%	1.5e-08
Cc1ccc(C)c(CSc2nnc([C@@H](N)C(C)C)o2)c1	i	7%	i	-1.2%	8.2e-09
CCC(=O)c1ccc(OCCn2cncn2)cc1	i	-7%	i	1.1%	1e-09
Continuation.
SMILES	A488 autofl	TSHR ag	Resorufin autofl	AID923	A647 fluor
COc1ccc(CNCCNC(=O)c2ccco2)c(OC)c1OC	i	-1%	i	0.3%	3.1e-08
Cc1c(NC(=O)c2ccccc2NS(=O)(=O)c2ccc(F)cc2)c(=O)n(-c2ccccc2)n1C	i	-10%	i	-2.1%	1.4e-08
CCOc1ccc(/C(O)=C2/C(=O)C(=O)N(CCN(C)C)C2c2ccccc2)cc1Cl (stereo not drawn)	i	x	i	x	1e-09
c1ccc(NC(=NCc2ccco2)c2ccccc2)cc1	i	x	i	0.9%	1e-09
c1ccc(Cc2nn3c(C4COc5ccccc5O4)nnc3s2)cc1 (stereo not drawn)	i	18%	i	-1.7%	1e-09
CCOc1ccc(OCC)c(NS(=O)(=O)c2cccc3nsnc23)c1	i	x	i	-0.2%	2e-08
O=C(CC1Nc2ccccc2NC1=O)Nc1ccccc1 (stereo not drawn)	i	-12%	i	4.2%	1.2e-08
C/C(CCN1CCCc2nc(C)c(C)cc21)=N\O[C@@H](C)CN1CCCCc2nc(C)c(C)cc21	x	15%[11.4 µM]	x	2.2%[11.5 µM]	x
CCn1c2ccccc2c2cc(C3C(C#N)=C(N)OC4=C3C(=O)CC(C)(C)C4)ccc21 (stereo not drawn)	i	2%	i	-0.8%	1e-09
CCCC(=O)NCc1ccc2c(c1)cc(C)n2C	i	0%	i	9.9%	1.9e-08
CN(C)S(=O)(=O)c1cccc(C(=O)Nc2ccc(Cl)cn2)c1	i	u	i	0.3%	2.6e-08
CCN(Cc1ccccc1)S(=O)(=O)c1ccc2oc(C(=O)O)c(C)c2c1	i	u	i	-0.2%	1e-09
Cc1nc2ccccc2c(=O)n1NCc1cc(Br)cs1	i	u	i	-2.4%	1e-09
COc1ccc(C)cc1-n1nnnc1SCC(=O)Nc1cc(C)on1	i	2%	i	0.3%	1e-09
CCOc1ccccc1CNC(=O)c1cc2occc2n1C	x	8%	x	-0.1%	x
COc1ccc(NC(=O)C(C)N(c2ccc(C)cc2)S(C)(=O)=O)c(OC)c1 (stereo not drawn)	i	-4%	i	0.2%	2.9e-08
N[C@@H](C(=O)O)[C@@H]1C[C@H]1C(=O)O	i	7%	i	x	1.8e-09
CCCn1c(-c2ccc(F)cc2)nc2c(NCC3CCN(C)CC3)nc(C)nc21	x	u	x	-0.2%	x
Cc1cc(NC(=O)COc2ccccc2)n(-c2ccccc2)n1	i	27%	i	-0.6%	3.7e-08
COc1cc(C(=O)Nc2cccc(-c3nc4cc(C)ccc4o3)c2)cc(OC)c1OC	x	-2%	x	-0.9%	x
CCCCOC(=O)c1ccc(NC(=O)CSCc2n[nH]c(=O)[nH]2)cc1	x	-3%	x	1.1%	x
Cc1nn(CC(=O)NCCc2ccccc2)c(=O)c2ccccc12	i	7%	i	1.5%	4.6e-08
COCC(=O)O	x	u	x	-0.6%	x
CCCCC(=O)NCCc1ccc(S(N)(=O)=O)cc1	i	0%	i	-1.4%	3e-08
C/C(CCN1CCCCc2nc(C)c(C)cc21)=N\O[C@@H](C)c1cn([C@@H]2COC[C@@H]2O)nn1	x	5%[11.4 µM]	x	1.6%[11.5 µM]	x
New compounds follow:
SMILES	A488 autofl	TSHR ag	Resorufin autofl	AID923	A647 fluor
O=C(Nc1nnc(C2CC2)o1)c1ccc(S(=O)(=O)N2CCCc3ccccc32)cc1	x	u	x	-3.6%	x
Nc1nc(-c2ccc(Cl)cc2)cc(C(F)(F)F)n1	i	0%	i	0.2%	1e-09
COc1ccc(-c2nnc3sc(CCN4C(=O)c5ccccc5C4=O)nn23)cc1	i	13%	i	0.6%	3.9e-09
O=c1[nH][nH]c(=S)c(=O)[nH]1	i	u	i	-0.9%[11.5 µM]	1e-08
CCOC(=O)C(C#N)c1ccccn1 (stereo not drawn)	i	-1%	i	-0.3%	6e-09
COc1cc(C)c(N(C(C)=O)c2ccccc2)c(C)c1	x	u	x	2.8%	x
C/C(CC(O)(/C=N/O)c1ccccc1)=N\O (stereo not drawn)	i	-4%	i	0.7%	4e-08
c1cn(-c2cc(-c3ccc4c(c3)OCO4)ncn2)cn1	i	11%	i	-0.9%	1e-09

Only part of the results is shown; rates above refer to the full screens.
